Bioassay records from PubChem.
miR-21 reporter: raises the signal of a miR-21 reporter. HeLa miR-21 FLuc reporter, luciferase, 48 h. Potency, µM (highest dose often 38.3 µM), for the others: at the top dose reporter change, positive = more light. 340,000 tested, under 10 active; active = well fitted rising curve with a large enough effect; inconclusive = small, poorly fitted or top-dose-only effect; inactive = no such curve, though single readings can be large or run the other way;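 note: % of control where 0% means no effect; miR-21 action dims this reporter so a rising signal means less miR-21 action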
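Compounds were titrated across several concentrations (up to approximately 40 uM) and incubated 48 hours with HeLa miR-21-FLuc reporter cells (miR-21 target sequence downstream of FLuc, endogenous miR-21). Readout was firefly luciferase luminescence after lytic detection reagent.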
Rango dissoc inh: inhibition of RanGTP-driven Rango-importin beta dissociation; AID 540253; O95149+P62826; Potency, µM (doses to about 46.1 µM), for the others: at the highest dose activity change, negative = inhibition; 340,000 tested, 0.071% active; Biochemical FRET Rango-importin beta, RanGTP-induced dissociation; active means falling FRET ratio curve, often poorly fitted, with flat reads before Ran was added; inconclusive means other falling curves, or compound fluorescence or quenching; inactive means flat or rising ratio curve;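 note: potency is the fitted concentration of half-maximal effect; % of control where 0% means no effect; nearly all actives have a fitted effect of over 45% in size; -100% = wells without RanGTP and RCC1; the record marks most hits as doubtful in a second field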
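Rango FRET biosensor (snurportin-1 IBB flanked by N-terminal EYFP and C-terminal CFP10) at 0.1 uM, with 0.25 uM importin beta in PBS, 1mM DTT, 0.02% Tween-20, 0.1% BSA. 0.6 uM Ran, 2mM GTP and 0.2 uM RCC1 were then added for 45 min at room temperature. Inhibition read as loss of FRET rise.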
GLA inh pH 4.5: alpha-galactosidase A (human) inhibition, pH 4.5. P06280. purified enzyme, 4-MU-alpha-Gal fluorescence, pH 4.5. activity change, negative = inhibition, % at 105 µM. 230,000 tested, under 10 active. AID 1467; inconclusive = small, poorly fitted or top-dose-only inhibition, or a rising curve; inactive = flat fitted curve, though single readings scatter; no compound was filed as active;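 note: 0% = full activity with enzyme and -100% = basal without enzyme; dose as in the result columns while the protocol names 77 µM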
Target sequence (P06280 whole entry, looked up): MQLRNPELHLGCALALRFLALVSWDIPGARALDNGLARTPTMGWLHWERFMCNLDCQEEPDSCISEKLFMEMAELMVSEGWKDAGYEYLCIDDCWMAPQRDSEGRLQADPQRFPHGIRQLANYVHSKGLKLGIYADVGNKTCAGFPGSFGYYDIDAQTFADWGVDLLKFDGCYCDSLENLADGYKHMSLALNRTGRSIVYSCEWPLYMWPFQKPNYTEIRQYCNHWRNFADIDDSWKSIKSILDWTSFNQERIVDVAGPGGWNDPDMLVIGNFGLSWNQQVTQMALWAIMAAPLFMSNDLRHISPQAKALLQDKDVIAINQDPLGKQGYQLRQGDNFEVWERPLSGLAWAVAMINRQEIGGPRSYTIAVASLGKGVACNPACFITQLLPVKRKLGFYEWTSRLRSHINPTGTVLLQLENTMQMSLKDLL
Rango-impB inh: inhibitors of Rango-importin beta complex formation | Q14974 | AID 540263 | Rango CFP/YFP FRET sensor + importin beta, 45 min | 340,000 tested, 0.031% active | Potency, µM (top dose mostly 92.2 µM), without a hit: at the highest dose inhibition of complex formation; active = rising FRET ratio curve, often small or poorly fitted; inconclusive = mostly compound fluorescence or quenching in the first reads; inactive = flat curves in all reads;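 note: potency is the fitted concentration of half-maximal effect; 0% = DMSO wells and 100% = buffer wells lacking importin beta; nearly all actives have a fitted effect of over 15% in size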
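FRET biosensor (snurportin 1 IBB flanked by EYFP and cerulean), 50 nM, with compound 5 min, then 0.125 microM importin beta in PBS, 1 mM DTT, 0.02% Tween-20, 0.1% BSA. CFP/YFP ratio read after 45 min at room temperature; pre-read flags interference.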
Active calls of the source: *; ? = inconclusive; . = no result given; & = joins results of further samples. This is a subset; count on the stated rates, not on these rows.

SMILES	miR-21 reporter	Rango dissoc inh	GLA inh pH 4.5	Rango-impB inh
O=C(Cc1ccc(-c2ccccc2)cc1)OCC(=O)N1CCCC1=O	1%	-3%	-13	5.3%
O=C(O)CCCC(=O)N1CCN(c2nc(-c3ccccc3)c3ccccc3n2)CC1	-3%	?	4	?
C=CCn1c(COc2ccc(Cl)cc2)nnc1SCC(=O)Nc1ccc(S(N)(=O)=O)cc1	-10%	?	10	-3.3%
O=C(Nc1cccc(S(=O)(=O)N2CCOCC2)c1)C1CCCC1	.	19%	.	-0.1%
CC(C)n1cc(/C=C2/NC(=O)NC2=O)c2ccccc21	-13%	-14%	-3	0.7%
Cc1cc(Cl)ccc1OCCCC(=O)OCC(=O)Nc1cccc(S(N)(=O)=O)c1	.	-3%	.	2.2%
Cc1cc(C(=O)NC2CCCc3c2cnn3-c2ccc(C(C)(C)C)cc2)nn1C (stereo not given)	26%	3%	.	-1.5%
CN(C)c1ccc(/C=[N+](\[O-])C2N(c3ccccc3)C(=S)SC2(C)C)cc1 (stereo not given)	-8%	5%	-6	-4.7%
Cc1ccc(C(=O)NC2CCS(=O)(=O)C2)cc1S(=O)(=O)N1CCCCCC1 (stereo not given)	-4%	-8%	-11	-3.3%
CCCN1Cc2cccc(C(=O)NCc3ccccc3OC)c2C1=O	-6%	-9%	7	2.9%
CCC[C@@H]1C[C@@H](C(=O)N[C@H]([C@@H](C)O)[C@H]2O[C@H](SC)[C@H](O)[C@@H](O)C2O)N(C)C1 (stereo not given in full)	0%	-4%	-2	-4.2%
CCN(CC)S(=O)(=O)c1ccc(C(=O)Nc2ccc3c(c2)OCO3)cc1	0%	3%	-2	0.0%
COc1ccc(NC(=O)CCN2CCOCC2)c(OC)c1	-8%	-24%	-9	-3.7%
Cc1ccc(C)c(OCCC(=O)OCC(=O)c2ccc3c(c2)NC(=O)CO3)c1	.	28%	.	4.5%
COc1ccc(-c2noc(CNC(=O)c3ccc4c(c3)OCO4)n2)cc1	-6%	-18%	.	2.9%
C#CCNC(=O)C1=C[C@@H](C2CCCCC2)C[C@@H](OCCCCO)O1	-10%	-17%	0	?
O=Cc1ccc(OCC(=O)NCC2CCCO2)cc1 (stereo not given)	1%	7%	.	-0.3%
CN(C)CCNC(=O)c1cc2ccccc2oc1=O	-6%	-13%	-4	-0.4%
CCOC(=O)C1CC2=C(CCCC2=O)NC1=O (stereo not given)	.	18%	.	-3.3%
NC(c1ccccc1)c1cccnc1 (stereo not given)	2%	-24%	.	7.6%
COc1ccc(OC)c(Nc2ncnc3c2cnn3-c2ccccc2)c1	-27%	-2%	-3	-1.0%
COc1ccc(CCn2c(-c3ccncc3)n[nH]c2=S)cc1OC	-2%	9%	7	2.6%
Fc1ccc([C@@H]2CCNC[C@H]2COc2ccc3c(c2)OCO3)cc1	?	-4%&-12%&8%	-3&-2	0.1%&-0.5%&-0.5%
COc1ccc(S(=O)(=O)N2CCCCC2)cc1NC(=O)CNc1ccc(F)cc1C	.	-2%	.	-1.6%
COc1ccc(/C=C/C(=O)NC(=S)Nc2ccc(Br)cn2)cc1	-20%	4%	.	0.8%
CCOC(=O)c1c(C)oc2c1c(CN1CCN(CCO)CC1)c(O)c1ccccc12	-72%	3%	9	0.5%
COc1ccc(CC(C)Nc2ccccc2F)cc1 (stereo not given)	-3%	-11%	.	1.9%
CC(/C=N/NC(=O)CCn1nnc2ccccc21)=C\c1ccccc1	-10%	-1%	-3	-0.7%
O=C(NCCSCc1ccc(Cl)cc1Cl)c1ccc(CN2CCOCC2)cc1	22%	-9%	-2	3.5%
Cc1nn(CCCNC(=O)C2CCCO2)cc1Br (stereo not given)	-5%	?	-3	-0.2%
CC(C)Cc1cc(C(=O)Nc2sc3c(c2C#N)CCCC3)no1	-38%	-3%	5	-0.4%
Cc1ccc(CNC(=O)CSc2ncccn2)cc1	-33%	-2%	-3	0.9%
COc1ccc(S(=O)(=O)N2CC3CCCN3c3ccc(C(F)(F)F)cc32)cc1 (stereo not given)	-13%	-13%	-4	-1.7%
Clc1ccc(Nc2ncnc3ccc(Br)cc23)cc1	24%	-5%	-7	4.4%
CCCN1C(=O)/C(=C/c2ccc(C)o2)NC1=S	5%	.	-15	.
O=C(c1cccc(C(=O)N2CCN(c3ccccc3F)CC2)c1)N1CCN(c2ccccc2F)CC1	29%	1%	-9	1.0%
CCN(CC)CCNCC1C(=O)O[C@@H]2C[C@@]3(C)CCC[C@H](C)C3=C[C@H]12 (stereo not given in full)	16%	-6%	.	6.2%
Cc1oc(CC(C)C)c(CN)c1C(=O)O	0%	0%	-9	0.5%
COC(=O)[C@H](C)NC(=O)N1CCC(Cc2ccccc2)CC1	-4%	2%	.	-1.3%
CCCn1c2ccccc2c2cnn(CC(=O)O)c(=O)c21	-1%	?	.	-0.5%
CC(Sc1nnc(-c2ccccc2Br)n1-c1cccc(C(F)(F)F)c1)C(N)=O (stereo not given)	-2%	-2%	-14	-5.5%
S=C(NCCc1ccccc1)N1CCN(C2CCCCC2)CC1	-14%	7%	3	-1.0%
COc1ccc(C(=O)N[C@H](C(=O)Nc2ccc(OC)nc2)C(C)C)cc1	-42%	-16%	-5	0.4%
COc1ccc(CCNC(=O)CC2Nc3ccccc3NC2=O)cc1OC (stereo not given)	-9%	-29%	-1	?
CCC(CO)Oc1cc(NC(=O)c2cccc([N+](=O)[O-])c2)c2ncn(C(C)C)c2c1 (stereo not given)	.	-11%	.	-0.3%
COc1ccc(S(=O)(=O)Nc2cc(C)ccc2OC)cc1C	8%	-6%	-8	0.2%
CC(C)c1ccc(/C=C2\SC(=S)N(CC(=O)NCCCN3CCOCC3)C2=O)cc1	-10%	-29%	.	-3.5%
Cn1c(Oc2ccc3c(c2)OCO3)nc2c1c(=O)n(Cc1ccccc1)c(=O)n2C	-1%	7%	.	-4.2%
CSc1nc2nc(-c3cccs3)cc(C(F)(F)F)c2c(=O)[nH]1	-5%	-26%	.	?
COc1ccccc1C(=O)Nc1nc2cc3c(cc2s1)OCCO3	-53%	-4%	?	-1.3%
More entries.
SMILES	miR-21 reporter	Rango dissoc inh	GLA inh pH 4.5	Rango-impB inh
COc1ccc(-c2nnc(SCCc3ccccc3)n2N)cc1	-26%	14%	1	-0.7%
CCN(CCNC(=O)CN1CCN(Cc2ccc(Cl)cc2)C1=O)c1ccccc1	13%	6%	-10	-1.2%
CCCCc1nc2cc(C(=O)N3CCN(c4cnccn4)CC3)ccc2o1	-8%	-8%	.	1.5%
Cc1ncoc1C(=O)NCCC(c1ccccc1)c1ccccc1	14%	6%	3	0.0%
CCCCC(=O)NC(=S)NNC(=O)CC	-1%	-6%	-19	3.5%
COc1ccc2nc(NC(=O)C3CCCN(S(=O)(=O)c4c(C)noc4C)C3)sc2c1 (stereo not given)	17%	1%	-1	-2.6%
COc1ccc(C)cc1S(=O)(=O)N(C)CC(=O)NC1CCCCC1	-6%	-7%	-1	0.6%
COc1ccccc1NS(=O)(=O)c1cc(C(=O)N2CCN(C/C=C/c3ccccc3)CC2)ccc1C	-4%	11%	.	3.0%
Nc1nnc(Sc2ncccc2[N+](=O)[O-])s1	-6%	-8%	1	0.9%
CCn1cc([N+](=O)[O-])c(C(=O)Nc2cc(C)on2)n1	1%	-8%	7	0.6%
COc1cc(/C=N/N=C(/N)c2nonc2N)cc(Br)c1OCc1cccc(C)c1	1%	1%	5	2.3%
CCOc1ccc(NC(=O)CCN2C(=S)NC(C)(C)CC2C)cc1 (stereo not given)	-2%	-7%	2	-1.1%
Cc1cc(Nc2ccc(F)c(Cl)c2)n2ncnc2n1	-14%	-5%	4	-0.6%
COC(=O)c1ccc(C2NC(=O)c3ccccc3O2)cc1 (stereo not given)	-5%	-3%	.	-0.3%
CC(C)(C)OC(=O)n1cc(CCO)c2ccccc21	.	6%	.	-2.3%
O=C1CCC(c2ccc3ccccc3c2)O1 (stereo not given)	.	-7%	.	1.6%
COc1ccc(-c2nc(-c3cccc(C)c3)nc(Cl)c2C#N)cc1	-4%	.	-1	.
COc1cc(C(=O)N2CCN(c3ccccc3)CC2)c([N+](=O)[O-])cc1OC	-2%	-5%	6	-1.4%
COc1ccccc1NC(=O)c1ccc2c(c1)CCN2S(C)(=O)=O	-8%	-18%	.	-1.1%
Nc1nc(Cl)nc2c1ncn2[C@@H]1O[C@H](CO)[C@@H](O)[C@H]1O	-10%	19%	4&-19	0.2%
Cc1cc(C(=O)OCC(=O)c2cccs2)c2ccccc2n1	1%	-3%	0	-0.8%

Entries above with an aryl methoxy group, in the order listed:
SMILES	miR-21 reporter	Rango dissoc inh	GLA inh pH 4.5	Rango-impB inh
CCCN1Cc2cccc(C(=O)NCc3ccccc3OC)c2C1=O	-6%	-9%	7	2.9%
COc1ccc(NC(=O)CCN2CCOCC2)c(OC)c1	-8%	-24%	-9	-3.7%
COc1ccc(-c2noc(CNC(=O)c3ccc4c(c3)OCO4)n2)cc1	-6%	-18%	.	2.9%
COc1ccc(OC)c(Nc2ncnc3c2cnn3-c2ccccc2)c1	-27%	-2%	-3	-1.0%
COc1ccc(CCn2c(-c3ccncc3)n[nH]c2=S)cc1OC	-2%	9%	7	2.6%
COc1ccc(S(=O)(=O)N2CCCCC2)cc1NC(=O)CNc1ccc(F)cc1C	.	-2%	.	-1.6%
COc1ccc(/C=C/C(=O)NC(=S)Nc2ccc(Br)cn2)cc1	-20%	4%	.	0.8%
COc1ccc(CC(C)Nc2ccccc2F)cc1 (stereo not given)	-3%	-11%	.	1.9%
COc1ccc(S(=O)(=O)N2CC3CCCN3c3ccc(C(F)(F)F)cc32)cc1 (stereo not given)	-13%	-13%	-4	-1.7%
COc1ccc(C(=O)N[C@H](C(=O)Nc2ccc(OC)nc2)C(C)C)cc1	-42%	-16%	-5	0.4%
COc1ccc(CCNC(=O)CC2Nc3ccccc3NC2=O)cc1OC (stereo not given)	-9%	-29%	-1	?
COc1ccc(S(=O)(=O)Nc2cc(C)ccc2OC)cc1C	8%	-6%	-8	0.2%
COc1ccccc1C(=O)Nc1nc2cc3c(cc2s1)OCCO3	-53%	-4%	?	-1.3%
COc1ccc(-c2nnc(SCCc3ccccc3)n2N)cc1	-26%	14%	1	-0.7%
COc1ccc2nc(NC(=O)C3CCCN(S(=O)(=O)c4c(C)noc4C)C3)sc2c1 (stereo not given)	17%	1%	-1	-2.6%
COc1ccc(C)cc1S(=O)(=O)N(C)CC(=O)NC1CCCCC1	-6%	-7%	-1	0.6%
COc1ccccc1NS(=O)(=O)c1cc(C(=O)N2CCN(C/C=C/c3ccccc3)CC2)ccc1C	-4%	11%	.	3.0%
COc1cc(/C=N/N=C(/N)c2nonc2N)cc(Br)c1OCc1cccc(C)c1	1%	1%	5	2.3%
COc1ccc(-c2nc(-c3cccc(C)c3)nc(Cl)c2C#N)cc1	-4%	.	-1	.
COc1cc(C(=O)N2CCN(c3ccccc3)CC2)c([N+](=O)[O-])cc1OC	-2%	-5%	6	-1.4%
COc1ccccc1NC(=O)c1ccc2c(c1)CCN2S(C)(=O)=O	-8%	-18%	.	-1.1%
